2A StopGo = High Throughput Screening for Foot and Mouth Disease Virus Antivirals; human cells with a luciferase reporter of 2A StopGo recoding; control for the full effect not named in the record; Potency, µM (top dose mostly 57.9 µM), inactives show at the highest dose signal change, negative = less light; actives 1.2% (n = 410,000); AID 1159524, 2015; active = well fitted falling curve with a large enough effect; inconclusive = small, poorly fitted or top-dose-only effect; inactive = no such curve, though single readings can be large or run the other way; tested in HEK293T cells; also: % is scaled to controls: 0 for no effect and ±100 for the full control effect; nearly all actives have a fitted effect of over 45% in size; luciferase light after 4 h
NS1 function inh = qHTS Assay for Inhibitors of Influenza NS1 Protein Function; Potency, µM (top dose mostly 46.1 µM), for the others: at the highest dose activity, positive = more growth; S. cerevisiae slowed by influenza A NS1, growth recovery by OD600; actives 0.4% (n = 270,000); AID 2326, 2010; active means well fitted rising curve with a large enough effect; inconclusive means small, poorly fitted or top-dose-only effect; inactive means no such curve, though single readings can be large or run the other way; also: nearly all actives have a fitted effect of over 50% in size
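Growth recovery, yeast-based: influenza A NS1 expressed in S. cerevisiae causes slow growth, and suppressors are detected by OD600. The parent strain without NS1 is used as positive control.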
Lassa entry inh = qHTS for Inhibitors of binding or entry into cells for Lassa Virus; Lassa virus pseudotype entry inhibition, cell reporter; control for the full effect not named in the record; Potency, µM (top dose mostly 37.9 µM), for the others: at the top dose activity change, negative = inhibition, hits mostly inhibitors; actives 1.2% (n = 300,000); active means well fitted inhibition curve with a large enough effect; inconclusive means small, poorly fitted or top-dose-only effect, or effect the other way; inactive means flat fitted curve, though single readings scatter; tested in HEK293 cells; also: % is scaled to controls: 0 for no effect and ±100 for the full control effect; nearly all actives have a fitted effect of over 50% in size; luciferase read-out
RE007 growth inh = qHTS Assay for Inhibitors of the HIV-1 protein Vpr; actives 0.21% (n = 360,000); AID 651644, 2012; Potency, µM (series often up to 92.2 µM), for the others: at the top dose activity change, negative = less growth; S. pombe RE007 Vpr strain, BacTiter-Glo ATP luminescence, 24 h; control for the full effect not named in the record; active = well fitted falling curve with a large enough effect; inconclusive = small, poorly fitted or top-dose-only effect; inactive = no such curve, though single readings can be large or run the other way;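 also: % is scaled to controls: 0 for no effect and ±100 for the full control effect; nearly all actives have a fitted effect of over 50% in size; the assay follows cell death caused by Vpr and the record does not say whether a fall means rescue or toxicity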
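Fission yeast RE007 carrying one integrated HIV-1 vpr copy, seeded at OD 0.01 in PMG+AL medium with 23 nL pinned compound. Grown 24 h at 30 degrees; viability read by BacTiter-Glo luminescence after 5 min.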
Marburg entry inh = qHTS for inhibitors of binding or entry into cells for Marburg Virus; Marburg virus pseudotyped entry inhibition, cell reporter; control for the full effect not named in the record; about a third of the inactives were read at about 46 µM; Potency, µM (highest dose often 37.8 µM), for inactives: at the top dose activity change, negative = inhibition, usual class: inhibitors; actives 1.8% (n = 300,000); AID 540276, 2011; active = well fitted inhibition curve with a large enough effect; inconclusive = small, poorly fitted or top-dose-only effect, or effect the other way; inactive = flat fitted curve, though single readings scatter; tested in HEK293 cells; about a fifth of its hits are not listed in these tables; also: % is scaled to controls: 0 for no effect and ±100 for the full control effect; luciferase read-out
SARS PLP yeast = qHTS of Yeast-based Assay for SARS-CoV PLP. S. cerevisiae expressing SARS-CoV PLpro, growth rescue; control for the full effect not named in the record. Potency, µM (doses to about 32.9 µM), for the others: top-dose activity, positive = growth rescue. actives 0.19% (n = 330,000); active means well fitted rising curve with a large enough effect; inconclusive means small, poorly fitted or top-dose-only effect; inactive means no such curve, though single readings can be large or run the other way; also: 0% is about no effect; nearly all actives have a fitted effect of over 55% in size; growth read by luminescence after 48 h
Cruzain inh noDet = qHTS Assay for Promiscuous and Specific Inhibitors of Cruzain (without detergent); Cruzipain (Trypanosoma cruzi), P25779; purified cruzain, Z-FR-AMC fluorescence, no detergent; actives 2.3% (n = 200,000); Potency, µM, inactives show max response, negative = inhibition, hits mostly inhibitors; AID 1476, 2009;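 also: plate controls were enzyme without inhibitor for no effect and buffer without enzyme for full effect; nearly all actives have a fitted effect of over 40% in size; top concentration of the series not given in the record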
Target sequence (P25779 123-467 limits assumed): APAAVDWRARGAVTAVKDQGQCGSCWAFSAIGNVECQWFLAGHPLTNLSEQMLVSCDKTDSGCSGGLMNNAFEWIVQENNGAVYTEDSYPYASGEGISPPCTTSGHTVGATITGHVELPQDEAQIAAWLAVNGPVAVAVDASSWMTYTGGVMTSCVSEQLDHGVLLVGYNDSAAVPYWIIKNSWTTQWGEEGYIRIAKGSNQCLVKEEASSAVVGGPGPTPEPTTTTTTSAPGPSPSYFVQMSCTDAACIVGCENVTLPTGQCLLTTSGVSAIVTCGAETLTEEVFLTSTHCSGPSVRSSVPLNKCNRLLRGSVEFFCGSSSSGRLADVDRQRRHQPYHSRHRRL
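Purified cruzain at 1.5 nM, pre-incubated 15 min with compound at room temperature in 100 mM sodium acetate pH 5.5, 5 mM DTT, 0.00005% Triton X-100. Reaction started with 2 uM Z-FR-AMC; AMC fluorescence increase over 60 s gives rate.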
Cruzain inh Det = qHTS Assay for Promiscuous and Specific Inhibitors of Cruzain (with detergent). Cruzipain (Trypanosoma cruzi), P25779. purified cruzain, Z-FR-AMC fluorescence, 0.01% Triton. Potency, µM, for inactives: max response, negative = inhibition, usual class: inhibitors. actives 0.43% (n = 200,000);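 also: plate controls were neutral wells for no effect and buffer without enzyme for full effect; nearly all actives have a fitted effect of over 40% in size; top concentration of the series not given in the record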
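Cruzain (1.5 nM) preincubated 15 min at RT with compound in 100 mM sodium acetate pH 5.5, 5 mM DTT, 0.01% Triton X-100. Reaction started with 2 uM Z-FR-AMC; AMC fluorescence (ex 360/em 450 nm) change over 60 s gave rate.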
Active calls of the source: *; ? = inconclusive; nt = not tested or not shown; & = joins results of further samples; [ ] = dose if it differs, or a comment. Unless noted, calls follow the shape of the dose curve; as a rule, active = well fitted curve in the direction sought with a large enough effect; inconclusive = small, poorly fitted or top-dose-only effect, or another doubt; inactive = no such curve, though single readings can be large; an effect the other way counts as inactive or inconclusive. Potency is read from the fitted curve at half-maximal effect.

Values run as follows: 2A StopGo	NS1 function inh	Lassa entry inh	RE007 growth inh	Marburg entry inh	SARS PLP yeast	Cruzain inh noDet	Cruzain inh Det
1: COC(=O)c1ccc(/C=C/C(=O)c2ccc(OC)cc2)cc1
→ -8.4%	-16.7%	2.8%	-13.9%	4.7%	1.4%	-16.0%	-5.2%
2: CCCCC[C@H]1CN(CCCC)C(=O)[C@@H]1CC(=O)NCc1ccccc1
→ 19.8%	-11.8%	nt	4.9%	nt	-1.3%	nt	nt
3: COc1ccc(-c2nc3ccccc3o2)cc1NC(=O)C(C)Oc1ccc(Cl)cc1Cl (stereo not drawn)
→ -26.4%	nt	0.7%[46.1 µM]	nt	17.6%[46.1 µM]	nt	0.9%	1.8%
4: COCCCNC(=O)CCc1nnc2ccc(N3CCC(C)CC3)nn12
→ -4.6%	-4.3%	20.8%[46.1 µM]	4.0%	7.2%[46.1 µM]	0.2%	nt	nt
5: CCOC(=O)C1CCN(C(=O)N(CC)CC)CC1
→ -8.9%	2.0%	?	-6.1%	-27.9%[46.1 µM]	0.6%	nt	nt
6: O=C(C1CCN(S(=O)(=O)N2CCOCC2)CC1)N1CCc2ccccc21
→ -11.1%	-19.6%	1.3%	-5.9%	-0.5%	8.5%	3.9%	5.7%
7: O=C(CSc1ccc(F)cc1)Nc1ccc(N2CCOCC2)cc1
→ 24.8%	-17.4%	nt	8.8%	nt	-3.8%	nt	nt
8: Cc1ccc(-c2noc(CN3CCN(Cc4ccccc4)CC3)n2)cc1
→ -16.8%	-5.5%	2.6%	-9.8%	?	1.0%	5.0%	0.5%
9: COC(=O)C1CC(=O)c2ccsc2C1 (stereo not drawn)
→ -13.3%	12.6%	-5.3%	-4.4%	?	4.3%	-2.9%	0.4%
10: O=C(NC1CC(=O)N(c2ccc(Cl)cc2)C1)C1CCCCC1 (stereo not drawn)
→ -5.1%	nt	12.1%[46.1 µM]	nt	nt	nt	-4.6%	-0.3%
11: COc1ccccc1CNC(=O)CCn1c(=O)c2ccccc2n(CC(=O)Nc2ccc(C)cc2C)c1=O
→ -3.3%	nt	-0.8%[46.1 µM]	nt	-10.5%[46.1 µM]	nt	-0.4%	-0.2%
12: CCc1ccc(-c2cc(C)no2)cc1S(=O)(=O)NCc1ccc(OC)cc1
→ 22.0%	nt	-8.4%[46.1 µM]	nt	nt	nt	-6.8%	-4.2%
13: O=C(Cc1cc(=O)[nH][nH]1)N/N=C/c1ccccc1[N+](=O)[O-]
→ -6.5%	8.91µM*	21.8%&1.2%	-9.0%	10.9%&16.0%	19.7%	-2.7%	-0.8%
14: O=C(O)C(F)(F)C(NCc1ccccc1)c1ccccc1 (stereo not drawn)
→ 1.9%	-45.7%	4.2%	-21.4%	2.0%	0.2%	nt	nt
15: O=CNc1ccccc1
→ 0.0%	nt	nt	-6.8%	nt	-9.8%	-8.8%	1.9%
16: CCc1c(C)nc2cc(-c3cccs3)[nH]n2c1=O
→ 19.4%	-1.3%	1.7%	-2.7%	1.6%	6.1%	7.0%	-1.0%
17: COCCN(C(=O)CSc1nc2ccccc2c(=O)n1CCOC)c1c(N)n(Cc2ccccc2)c(=O)[nH]c1=O
→ -3.8%	nt	0.7%	-11.5%	?	-1.8%	nt	nt
18: CCCCC(=O)Nc1ccc(C2C(=O)c3ccccc3C2=O)cc1
→ ?	nt	?	-2.1%	-5.9%	nt	nt	nt
19: O=C(Cc1c(F)cccc1Cl)Nc1ccc(S(=O)(=O)N2CCCC2)cc1
→ -13.2%	12.3%	-18.6%	8.7%	?	4.9%	nt	nt
20: Cc1cc(C)n(C(=O)CNC(=O)COc2ccccc2)n1
→ -4.8%	-6.8%	-1.0%	-9.2%	-1.2%	-4.6%	7.1%	0.9%
21: COc1cc(NC(=O)c2c(Cl)cnn2C)c(OC)cc1Cl
→ -4.2%	-3.3%	-5.1%	1.5%	-20.8%[46.1 µM]	-1.9%	nt	nt
22: O=C(NC1CCCCC1)C1CCN(S(=O)(=O)c2cccc3nonc23)CC1
→ -14.4%	7.4%	-2.3%	-6.1%	-2.3%[46.1 µM]	-4.1%	nt	nt
23: COC(=O)c1ccc(C2N=C(c3cccs3)CC(c3ccccc3O)N2)cc1 (stereo not drawn)
→ 13.4%	nt	13.4%	-23.7%	4.4%[46.1 µM]	-19.3%	nt	nt
24: CC1CCN(CC(=O)Nc2ccc(S(=O)(=O)N3C(C)CCCC3C)cc2)CC1 (stereo not drawn)
→ 27.8%	13.5%	nt	21.1%	nt	3.8%	nt	nt
25: O=C(c1ccccc1)c1c(-c2ccccc2)[nH]n(-c2ccccc2)c(=O)c1=O
→ -8.6%	nt	17.9%[46.1 µM]	27.5%	4.5%[46.1 µM]	nt	nt	nt
26: COCCNc1nc(SCC(=O)N2CCN(c3ccccc3OC)CC2)nc2ccccc12
→ ?	4.7%	-15.4%	0.6%	?	8.2%	3.2%	-3.9%
27: Cc1ccc(C2(C(=O)N3CCC(n4nc(-c5ccccc5)oc4=O)CC3)CC2)cc1
→ ?	-15.0%	nt	3.6%	nt	-8.2%	nt	nt
28: CCC(C)N(C(=O)COC(=O)c1cc([N+](=O)[O-])ccc1N1CCOCC1)C1CCS(=O)(=O)C1 (stereo not drawn)
→ -14.4%	nt	1.8%	-11.9%	3.1%	?	nt	nt
29: Fc1ccccc1C1CC(c2ccco2)=Nc2ccccc2S1 (stereo not drawn)
→ 9.2%	-65.3%	nt	25.1µM*	nt	-5.1%	nt	nt
30: COc1ccc(OC)c(C2=NOC(C(=O)Nc3cccnc3)C2)c1 (stereo not drawn)
→ 43.4%[activator]	-0.7%	-32.0%[14.3 µM]	9.6%	6.2%	5.8%	5.5%	0.1%
31: CCc1cccc(NC(=O)COC(=O)c2cc([N+](=O)[O-])ccc2N2CCOCC2)c1
→ ?	nt	?	-10.3%	?	2.2%	nt	nt
32: Nc1nc(Sc2ccc([N+](=O)[O-])cc2[N+](=O)[O-])n[nH]1
→ -18.7%	4.0%	nt	4.7%	nt	-0.7%	nt	nt
33: CCOC(=O)c1ccccc1NC1c2ccccc2C(=O)N1C1CCN(C(=O)OCC)CC1 (stereo not drawn)
→ ?	-74.4%	0.3%	2.9%	0.1%&0.1%	-27.2%	?	-16.8%
34: O=S(=O)(NCC(O)c1ccccc1)c1cc(Cl)sc1Cl (stereo not drawn)
→ 28.2%	-12.2%	-3.2%[46.1 µM]	3.1%	-4.7%[46.1 µM]	8.2%	nt	nt
35: Cc1cccc(OCC(=O)NNc2c3ccccc3nc3ccccc23)c1
→ ?	-21.2%	?	-0.8%	?	-5.4%	8.6%	-6.2%
36: Cc1ccc(S(=O)(=O)N/N=C/c2ccc(OC3CSC3)cc2)cc1
→ 36.9%[activator]	-1.6%	?	-6.5%	-12.4%	0.3%	-4.7%	-8.9%
37: Cc1nn2c(=O)cc(CSc3ccccc3NC(=O)c3ccccc3F)nc2s1
→ 0.1%	-2.1%	-4.4%[46.1 µM]	5.7%	-26.9%[46.1 µM]	0.7%	nt	nt
38: O=C(N/N=C/c1c[nH]c2ccccc12)c1ccncc1
→ 37.1%[activator]	-1.1%	15.3%	10.9%	-16.6%	-7.4%	-13.5%	-4.7%
39: CCOC(=O)C1=C(O)C(=O)N(c2ccc(S(N)(=O)=O)cc2)C1c1ccc(OC)cc1OC (stereo not drawn)
→ 15.0%	-15.0%	-4.8%	5.4%	4.4%	0.9%	-9.2%	-3.4%
40: CCN(CC(=O)Nc1c(F)cccc1F)C(=O)Cc1cccs1
→ 1.1%	nt	-0.8%	1.8%	4.8%[46.1 µM]	nt	nt	nt
41: COc1ccc(NC(=O)CSc2nc3[nH]ncc3c(=O)n2-c2ccccc2C)cc1OC
→ -15.4%	-6.4%	-5.8%	32.1%	?	12.6%	17.4%	-3.9%
42: COC(=O)c1c(C#N)c(N)nc2c1CCC2
→ 1.0%	7.4%	2.3%	8.4%	4.5%	-2.0%	4.3%	-9.1%
43: CCOC(=O)c1[nH]ncc1CN1CCCC(C(=O)c2cccc(OC(C)C)c2)C1 (stereo not drawn)
→ -14.2%	1.3%	15.6%[46.1 µM]	2.6%	0.4%[46.1 µM]	-2.6%	nt	nt
44: O=C(CN1C(=O)NC2(CCc3ccccc32)C1=O)NCC(F)(F)F (stereo not drawn)
→ -4.5%	5.4%	22.6%[46.1 µM]	-11.2%	-2.3%[46.1 µM]	0.5%	nt	nt
45: Cc1cccc(C)c1NC(=O)CN(C)C(=O)c1cc(S(=O)(=O)N(C)C)ccc1N1CCCC1
→ -10.8%	nt	0.7%	-6.4%	7.6%	12.0%	nt	nt
46: CCCN(CCC)c1nn2c(=O)c(C(=O)NCc3cccc(OC)c3)cnc2s1
→ -17.4%	nt	23.4%[46.1 µM]	nt	nt	nt	13.9%	-9.6%
47: COc1cc(OC)cc(C(=O)N[C@@H](CCSC)c2nc3ccccc3[nH]2)c1
→ 18.0%	-5.5%	nt	18.9%	nt	0.2%	nt	nt
48: Cc1cccc(NC(=O)CN2C(=O)c3ccccc3Sc3ncccc32)c1C
→ -22.4%	nt	-27.6%[46.1 µM]	nt	nt	nt	-10.0%	-0.7%
49: O=C(NCc1ccccc1Cl)c1ccc(NC(=O)N2CCCCc3ccccc32)cc1
→ 8.0%	nt	?	nt	nt	nt	-0.1%	2.9%
50: CC(=O)c1ccc(OC2OCCOC2Oc2ccc(C(C)=O)cc2)cc1 (stereo not drawn)
→ -8.9%	-2.8%	nt	-9.0%	nt	-9.4%	-5.8%	-1.4%

High-throughput results deposited in PubChem BioAssay by National Center for Advancing Translational Sciences (NCATS).
